From PubChem BioAssay
A488 autofl: A488 region autofluorescence; compound autofluorescence, A488 spectral region, dye equivalency; stronger effect = higher value; max dye equivalency, M; hit rate 0.1% among 59,000; active = above 10 nM dye equivalent; inconclusive = 1 to 10 nM; inactive = 1 nM or less; about half of its hits are not listed in these tables;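 also: highest value over a series up to 38 µM; compound alone in buffer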
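Compounds pin-transferred into 100 mM Tris buffer, pH 8.0, incubated 15 min at room temperature, then imaged with 480 nm excitation/540 nm emission filters. Fluorescence converted to Alexa 488 dye-equivalent concentration via an on-plate six-point A488 standard curve.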
Resorufin autofl: compounds fluorescent in resorufin spectral region. AID 588. hit rate 0.04% among 59,000. Compound fluorescence, resorufin region 547/598 nm, buffer; stronger effect = higher value. max dye-equivalent concentration, M; active = above 10 nM dye equivalent; inconclusive = 1 to 10 nM; inactive = 1 nM or less; a few of its hits are not listed in these tables; also: highest value over a series up to 38 µM
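Tris 100 mM pH 8.0; compound added, 15 min RT; CCD imager read, ex 547 nm/em 598 nm; signal normalized to resorufin standard curve (six concentrations per plate) as dye-equivalent concentration.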
A647 fluor: A647 region autofluorescence; Compound fluorescence, A647 channel (570/671 nm), Tris buffer; max dye-equivalent concentration, M; 59,000 tested, under 10 active; active means above 1 µM dye equivalent; inconclusive means 0.1 to 1 µM; inactive means 0.1 µM or less;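 also: values scaled relative to a standard on each plate; highest value over a series up to 38 µM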
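Buffer was dispensed, compounds and Alexa 647 standards were pin-transferred, and plates sat 15 min at room temperature. Intensity at 570/671 nm was then converted to dye-equivalent concentration using the plate's A647 standard curve.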
TSHR agonist: activates the human thyroid stimulating hormone receptor. Potency, µM (doses to about 57.1 µM), for inactives: top-dose activation, most hits filed as activators. HEK293-CNG-TSHR cells (CNG channel as cAMP sensor), membrane potential dye, cAMP. hit rate 0.48% among 73,000. AID 926; active = well fitted activation curve of enough size with the parental cells flat; inconclusive = any curve in the parental cells; inactive = parental cells flat and receptor cells flat or falling; also: potency is read from the fitted curve at half-maximal effect; % of control where 0% means no effect; weak receptor curves with flat parental cells got no call and are not listed
Target sequence (P16473 whole entry, looked up): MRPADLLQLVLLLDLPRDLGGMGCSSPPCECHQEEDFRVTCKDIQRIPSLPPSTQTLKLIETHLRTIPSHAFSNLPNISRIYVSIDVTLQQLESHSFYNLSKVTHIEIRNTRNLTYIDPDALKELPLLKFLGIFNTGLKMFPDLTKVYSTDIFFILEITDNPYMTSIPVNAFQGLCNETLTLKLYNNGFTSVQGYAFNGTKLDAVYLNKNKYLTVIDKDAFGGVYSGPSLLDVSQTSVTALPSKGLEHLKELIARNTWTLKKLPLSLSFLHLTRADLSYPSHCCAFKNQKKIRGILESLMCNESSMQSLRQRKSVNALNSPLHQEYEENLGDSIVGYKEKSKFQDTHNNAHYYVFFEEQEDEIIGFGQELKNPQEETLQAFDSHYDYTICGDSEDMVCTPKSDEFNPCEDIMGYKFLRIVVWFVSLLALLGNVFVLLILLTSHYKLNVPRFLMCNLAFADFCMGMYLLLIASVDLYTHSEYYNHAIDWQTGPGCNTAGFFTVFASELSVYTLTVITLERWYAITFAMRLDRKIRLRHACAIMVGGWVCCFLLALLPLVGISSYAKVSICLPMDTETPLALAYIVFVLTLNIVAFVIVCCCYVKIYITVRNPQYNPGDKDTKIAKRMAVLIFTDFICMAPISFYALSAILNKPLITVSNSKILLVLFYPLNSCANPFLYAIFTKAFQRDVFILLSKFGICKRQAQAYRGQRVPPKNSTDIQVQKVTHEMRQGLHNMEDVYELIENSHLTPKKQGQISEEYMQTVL
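HEK 293 cells stably expressing TSHR and a cAMP-gated CNG channel; parental CNG-only cells as counterscreen. Cells preloaded 60 min with membrane potential dye plus 100 uM RO 20-1724, then compound 30 min; fluorescence read at 590 nm.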
AID923: qHTS Assay for Allosteric/Competitive Inhibitors of Caspase-1: Spectroscopic Profiling in AFC Spectral Region; compound fluorescence, AFC spectral region (405/520 nm); almost no hit is shown here; Potency, µM (doses to about 57.5 µM), without a hit: at the top dose fluorescence increase, most hits filed as activators; hit rate 1.1% among 75,000; AID 923, 2007; active = well fitted activation curve with a large enough effect; inconclusive = small, poorly fitted or top-dose-only effect;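 also: potency is read from the fitted curve at half-maximal effect; 0% is about no effect; scaled to a free AFC standard on each plate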
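Titrations up to 57 uM read every 20 sec for 3 min (405/520 nm) with 50 nM caspase 1 and 5 uM Ac-WEHD-AFC, pH 7.5 HEPES buffer. Fluorescence-vs-time intercept gave baseline, scaled against on-plate AFC standard.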
* marks the source's active call; other numbers are inactive results; i = inactive; u = inconclusive; x = no result given; [ ] = another dose, or the depositor's remark. These rows are one share of the data; the hit share may differ from the screen's.

SMILES	A488 autofl	Resorufin autofl	A647 fluor	TSHR agonist	AID923
O=C(Nc1ccc(C(F)(F)F)cc1)C1CCCN1S(=O)(=O)c1cccc2cccnc12 (centres undefined)	i	i	2.2e-08	25%	-1.4%
CSc1ccccc1C(=O)NCc1ccc2c(c1)OCO2	i	i	2.2e-09	-11%	-0.6%
N#Cc1nc(-c2ccc(F)cc2)oc1NCCN1CCOCC1	x	x	x	-1%	-2.4%
O=C(O)c1ccc(S(=O)(=O)Cc2ccccc2)cc1	i	i	1e-09	u	1.3%
Cc1nc(NCCO)c2nnn(Cc3ccccc3F)c2n1	i	i	1e-09	-5%	-0.1%
CCCCOc1ccccc1C(=O)NCC(=O)O	i	i	2.9e-08	-1%	-0.5%
COc1ccc(OC)c(-c2nnc(SCC(=O)NC3CCCCC3)o2)c1	x	x	x	21%	1.5%
Cc1ccc2[nH]c(-c3ccccc3)cc(=O)c2c1	x	x	x	21%[11.4 µM]	1.1%
COc1ccc(NC(=O)CSc2nc3c(c(=O)n2-c2ccc(F)cc2)SCC3)c(OC)c1	i	i	2.6e-08	15%	-0.6%
Cc1cc(C(=O)CSc2nnc(-c3cccc(F)c3)n2N)c(C)n1Cc1ccc2c(c1)OCO2	i	i	9.7e-09	u	-1.5%
COc1ccc(-c2cc(-c3ccccc3)n3ncnc3n2)cc1	i	i	3.6e-09	x	x
Cc1nc2sc(C(c3ccco3)N3CCN(c4ccccc4)CC3)c(O)n2n1 (centres undefined)	x	x	x	u	2.9%
C=C(C)Cn1c(CCNC(=O)C(C)(C)C)nc2ccccc21	i	i	1e-09	-4%[11.4 µM]	-1.6%
COc1ccc2c(c1)C(=NO)c1cc(OC)ccc1-2	i	i	1e-09	-4%	-0.5%
CCn1c(=O)n(CC(=O)NCc2ccccc2OC)c(=O)c2ccccc21	i	i	3.1e-09	13%[11.4 µM]	0.4%
CCc1ccc2nc(NC(=O)CSCc3c(C)noc3C)sc2c1	i	i	3e-08	7%	-0.3%
COc1cc(NS(=O)(=O)c2ccc(NC(C)=O)cc2)cc(OC)c1	i	i	2e-09	27%	1.1%
CC1CCN(C(=O)c2scc3c2OCCO3)CC1	i	i	2.5e-09	4%	0.4%
CCC1=NC(c2ccccc2OC)N(O)C1(C)C (centres undefined)	x	x	x	-4%	2.3%
CCN1CCCC1Cn1c(-c2ccccc2)nc2c(N(CCOC)CCOC)nc(C)nc21 (centres undefined)	x	x	x	u	4.4%
COCc1cc(C)nc2sc(C(=O)N3CCCC3)c(N)c12	i	i	3.2e-09	4%	-1.0%
COc1ccc(NC(=O)C(C)NS(=O)(=O)c2ccc(NC(C)=O)cc2)cc1Cl (centres undefined)	i	i	6.6e-09	16%	-0.3%
O=C1/C(=N/n2cnnc2)c2ccccc2N1Cc1ccccc1	i	i	1.8e-08	x	0.8%
Cc1cc(C)nc(-n2c(Nc3ccccc3)cc(=O)c3c(C)n(-c4ccccc4)c(=O)nc32)n1	x	x	x	1%[11.4 µM]	-4.1%
Cn1c(=O)n(C)c2cc(S(=O)(=O)N3CCCc4ccccc43)ccc21	i	i	2.5e-08	u	-0.7%
The list goes on:
SMILES	A488 autofl	Resorufin autofl	A647 fluor	TSHR agonist	AID923
COC(=O)C1=C(C)n2nnnc2NC1c1cc2ccccc2o1 (centres undefined)	i	i	2.6e-08	20%	-0.2%
O=C(c1ccco1)N1CCN(C(=O)c2cc3c(=O)oc4ccccc4c3s2)CC1	i	i	1.8e-08	16%[11.4 µM]	-0.9%
CCN1CCN(Cc2c(C)[nH]c3ccc(C(=O)OC)cc3c2=O)CC1	i	i	2.9e-08	11%	0.1%
COc1ccc(C2/C(=C(/O)c3ccc(OC(C)C)cc3)C(=O)C(=O)N2CCCN2CCOCC2)cc1 (centres undefined)	i	i	1.4e-08	x	x
COc1ccc(Cl)cc1NC(=O)C1CCCN(S(=O)(=O)c2cccc3nonc23)C1 (centres undefined)	i	i	4.6e-08	-10%	1.4%
CCN(CC)C(=O)Cn1ncc2c1-c1ccccc1OC2	x	x	x	4%	-1.0%
CCc1ccccc1NC(=O)c1onc(C)c1Cl	x	x	x	16%	-1.5%
CCOCCCNC(=O)C(c1ccccc1)N(Cc1ccc2c(c1)OCO2)C(=O)CNC(C)=O (centres undefined)	i	i	2.5e-08	u	-0.8%
CSc1nc(=O)n(-c2ccccc2)c(C)c1C(C)=O	x	x	x	5%	0.1%
CC1CCCC(C)N1C(=O)c1cc(-c2ccc(Cl)c(Cl)c2)on1 (centres undefined)	i	i	1e-09	29%	0.3%
O=C(NCc1cccs1)[C@@H]1CSC2c3ccccc3C(=O)N21 (some centres undefined)	i	i	3.4e-09	0%	-1.1%
COc1ccccc1N1CCN(S(=O)(=O)c2cn(C)c(=O)n(C)c2=O)CC1	x	x	x	u	1.3%
COC(=O)CSc1nc2cc(C)ccc2cc1C#N	i	i	2.1e-08	5%	-0.7%
CC(NC(=O)COc1ccccc1)C(=O)NC1=NCCS1 (centres undefined)	x	x	x	0%[11.4 µM]	-2.8%
CCOC(=O)c1sc2nc(N3CCOCC3)c3c(c2c1N)CCCC3	i	i	1e-09	-26%	2.5%
CC1Cc2ccccc2N1C(=O)CSc1nc(-c2ccco2)cc(C(F)(F)F)n1 (centres undefined)	i	i	4.1e-08	u	-0.5%
O=C(CCCNS(=O)(=O)c1cccc2nsnc12)NCCc1ccccc1	i	i	5.2e-09	-2%	1.5%
NCCNCCNCCN	x	x	x	-1%	4.4%
CCOC(=O)c1sc(N(Cc2ccccc2)C(=O)CSc2nnc(C3CC3)n2N)nc1C	i	i	4.2e-08	u	-0.3%
C=CCn1c(=O)/c(=C/c2ccc(O)cc2)s/c1=C(/C#N)c1nnc2n1CCCCC2	u	i	1.7e-08	17%	2.1%
COc1ccccc1Nc1nc(N)nc(CN2CCc3ccccc3C2)n1	i	i	2.7e-08	19%	2.6%
CN1Cc2cc(C(=O)c3cc(Cl)cc(CSc4ncccn4)c3O)cnc2NC1=O	i	i	1e-09	16µM*	-1.7%
C1=C(c2ccccc2)CCN(c2ncnc3nc[nH]c23)C1	x	x	x	11%	-3.6%
Cc1ccc2c(C)c(C(=O)Nc3nnc(C)s3)oc2c1	i	i	1.5e-08	6%	2.0%
O=C(CCCSc1nc2sc3c(c2c(=O)[nH]1)CCC3)NCCO	i	i	1.4e-08	-5%	0.1%

Four compounds out of the list, arranged by length of the SMILES, descending:
SMILES	A488 autofl	Resorufin autofl	A647 fluor	TSHR agonist	AID923
CCOCCCNC(=O)C(c1ccccc1)N(Cc1ccc2c(c1)OCO2)C(=O)CNC(C)=O (centres undefined)	i	i	2.5e-08	u	-0.8%
CC1Cc2ccccc2N1C(=O)CSc1nc(-c2ccco2)cc(C(F)(F)F)n1 (centres undefined)	i	i	4.1e-08	u	-0.5%
O=C(NCc1cccs1)[C@@H]1CSC2c3ccccc3C(=O)N21 (some centres undefined)	i	i	3.4e-09	0%	-1.1%
CCc1ccccc1NC(=O)c1onc(C)c1Cl	x	x	x	16%	-1.5%

Further records follow:
SMILES	A488 autofl	Resorufin autofl	A647 fluor	TSHR agonist	AID923
COc1ccccc1-n1c(CNC(=O)c2ccc(S(=O)(=O)N3CCOCC3)cc2)n[nH]c1=S	i	i	1e-09	-5%[11.4 µM]	-0.4%
O=c1[nH]c(NC2CCCCC2)nnc1Cc1ccccc1	i	i	1.1e-08	-2%	0.1%
COc1cc2c(cc1OC)C(c1ccc(C)o1)CC(=O)N2 (centres undefined)	x	x	x	17%	2.3%
COc1ccc(N2C(=O)CC(Nc3ccc(N4CCOCC4)cc3)C2=O)c(OC)c1 (centres undefined)	i	i	1.8e-09	-4%	0.6%
COc1cc(NS(=O)(=O)c2ccc(NC(=O)CSC3=NCCS3)cc2)nc(OC)n1	i	i	1.6e-08	0%	2.0%
CC(C)N1C(=O)C2ON(c3ccccc3)C(c3cccs3)C2C1=O (centres undefined)	i	i	5.8e-09	u	-1.0%
COc1ccc(NC(=O)N2CCCC3(CCN(C(=O)c4csnn4)CC3)C2)cc1	i	i	1e-09	2%	1.8%
COc1ccccc1NC(=O)N1CCCC1C(=O)NC1CCCCC1 (centres undefined)	i	i	6.6e-09	2%	2.5%
CC1CC(c2ccccc2)n2nc(NC(=O)c3ccco3)nc2N1 (centres undefined)	i	i	1e-09	1%	-1.5%
O=C(COC(=O)C12CC3CC(CC(C3)C1)C2)N1CCN(S(=O)(=O)c2ccccc2)CC1	i	i	1.4e-09	18%	-1.1%
CN(C(=O)COC(=O)CNS(=O)(=O)/C=C/c1ccccc1)C1CCS(=O)(=O)C1 (centres undefined)	i	i	3.7e-09	2%	-1.2%
CCC(=O)Nc1ccccc1C(=O)OCC(=O)Nc1ccc(S(N)(=O)=O)cc1	i	i	2.2e-08	6%	0.8%
Cn1c(=O)c2c(nc(Br)n2CCSc2nc3ccccc3o2)n(C)c1=O	i	i	2.4e-08	x	x
CCCCCC(=O)Nc1cc(N(C)C)nc2ccccc12	x	x	x	u	-0.4%
CC(C)OCCCNC(=O)CN1C(=O)CC(C)(C)S(=O)(=O)c2ccccc21	x	x	x	-8%	3.9%
N#C/C(=C1/CCCCCN1)c1nc2ccccc2s1	i	i	1e-09	-2%[11.4 µM]	0.7%
c1ccc2c(c1)CCC[C@@H]2C1=NCCN1	i	i	2.3e-08	-4%[25.6 µM]	-0.3%[25.7 µM]
Cn1c(SCC(=O)C(C)(C)C)nnc1-c1cccnc1	i	i	1e-08	x	-1.4%
Ic1ccc2c(c1)N(c1ccccc1)c1cc(Nc3ccc4nc5ccc(I)cc5[n+](-c5ccccc5)c4c3)ccc1N2	i	i	1e-09	0%[11.4 µM]	-0.2%[11.5 µM]
CCCCN1CN(S(=O)(=O)c2cccs2)c2nc3ccccc3nc21	i	i	1e-09	u	0.0%
CCCCCC1CC(=O)N(Cc2ccc(Cl)cc2)C(=O)N1 (centres undefined)	i	i	5.9e-09	-1%	0.8%
COc1ccc(-c2cc(C(=O)Nc3cnn(Cc4ccccc4C)c3)no2)cc1OC	i	i	3.2e-09	0%[11.4 µM]	-0.9%
CCn1c(COc2ccccc2)nnc1SCC(=O)Nc1ccc2c(c1)OCCO2	i	i	2e-09	2%	0.6%
CC(C)C[C@H](NC(=O)Nc1cccc(Cl)c1)C(=O)O	i	i	3.7e-08	3%	2.0%
N#Cc1nc(-c2ccc(OCc3ccccc3)cc2)oc1N1CCOCC1	i	i	2.7e-08	x	3.8%
Further results
SMILES	A488 autofl	Resorufin autofl	A647 fluor	TSHR agonist	AID923
COc1ccc(-c2cc(C(=O)OCC(=O)N(C)C)c3ccccc3n2)cc1	i	i	2.2e-09	12%	15%
CCOC(=O)COc1cc2c(C(=O)OCC)c(C)oc2cc1Br	x	x	x	u	-1.4%
O=C(Cn1cc2c(n1)CCCCC2)NCCN1CCOCC1	x	x	x	5%	-1.4%
CCCn1c(=O)[nH]c(=O)c2c1nc(-c1ccccc1OC(F)F)n2CCOC	i	i	1.9e-08	0%	0.7%
CC(C)N(Cc1cc2ccccc2[nH]c1=O)C(=O)C1CCCCC1	i	i	7e-09	u	0.0%
O=C1c2ccccc2-c2nc3ncnn3c(-c3ccccc3Cl)c21	x	x	x	-12%	-0.9%
COc1ccccc1-c1c(C)nn2c(N3CCN(c4ccccc4OC)CC3)cc(C)nc12	x	x	x	u	-1.5%

Full records as entered above.
`COc1ccc(-c2cc(C(=O)OCC(=O)N(C)C)c3ccccc3n2)cc1` as listed: A488 autofl: i; Resorufin autofl: i; A647 fluor: 2.2e-09; TSHR agonist: 12%; AID923: 15%
`CCCn1c(=O)[nH]c(=O)c2c1nc(-c1ccccc1OC(F)F)n2CCOC` as listed: A488 autofl: i; Resorufin autofl: i; A647 fluor: 1.9e-08; TSHR agonist: 0%; AID923: 0.7%
`O=C(Cn1cc2c(n1)CCCCC2)NCCN1CCOCC1` as listed: A488 autofl: x; Resorufin autofl: x; A647 fluor: x; TSHR agonist: 5%; AID923: -1.4%
